E coli growth: inhibitors of Escherichia coli growth | hit rate 0.21% among 330,000 | OD600, 23 h; hits give low values | OD600 absorbance (test concentration not listed) | AID 1053175;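 active = OD600 absorbance below the run mean of sample wells minus 3.6 SD, in any replicate, cut at about 0.56 in these data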;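 also: stock transfer was 300 nL into about 60 µL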
HNF4A DNA FP: change in binding of human HNF4 alpha to DNA; P41235; HNF4a-FITC DNA binding, fluorescence polarization, 1 h; activity change, % at 10 µM; hit rate 0.3% among 360,000; AID 1224865; in the data active = activity change above about 30%, passing the limit was not always enough;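 also: controls were the assay level and a saturating level of protein; the project sought stronger binding though the title names inhibitors; some compounds called inactive have numbers as strong as hits; positive values seem to mean higher polarization but the record does not say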
Target sequence (P41235 whole entry, looked up): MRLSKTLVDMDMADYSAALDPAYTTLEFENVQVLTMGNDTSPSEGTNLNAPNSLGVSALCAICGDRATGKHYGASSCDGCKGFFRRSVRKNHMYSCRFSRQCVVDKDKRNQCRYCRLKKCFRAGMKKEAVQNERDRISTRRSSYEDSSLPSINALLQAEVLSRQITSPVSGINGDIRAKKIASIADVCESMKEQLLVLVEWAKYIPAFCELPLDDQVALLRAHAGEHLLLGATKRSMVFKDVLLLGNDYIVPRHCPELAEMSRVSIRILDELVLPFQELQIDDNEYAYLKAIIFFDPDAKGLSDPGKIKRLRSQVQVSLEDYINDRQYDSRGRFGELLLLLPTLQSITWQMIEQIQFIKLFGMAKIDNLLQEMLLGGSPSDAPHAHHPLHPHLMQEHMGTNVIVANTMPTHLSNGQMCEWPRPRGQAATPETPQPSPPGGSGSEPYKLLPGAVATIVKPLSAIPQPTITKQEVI
LANA-H2B inh: blocks KSHV LANA binding to histone H2A/H2B; Q9QR71; cell-free LANA-H2A/H2B peptide, fluorescence polarization; inhibition, % (test concentration not listed); hit rate 0.6% among 320,000; in the data active = inhibition mostly above about 10%, no sharp cut-off; inactive = mostly below about 6.7%;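 also: stock transfer was 7.5 nL into about 10 µL; 0% = median of vehicle wells and 100% = median of positive control wells; one replicate is shown; the record names a cut of 25% in any replicate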
FGF22 binding: binders of recombinant human FGF22 by thermal shift; Q9HCT0; SYPRO orange fluorescence; percent of sucrose octasulfate shift, DMSO zero; calls only at 9.99 µM; hit rate 1.5% among 340,000; AID 651658;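 active = melting point raised past a set limit in the mean and every replicate; inconclusive = no clear call; three in four hits are not shown here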
Target sequence (Q9HCT0 whole entry, looked up): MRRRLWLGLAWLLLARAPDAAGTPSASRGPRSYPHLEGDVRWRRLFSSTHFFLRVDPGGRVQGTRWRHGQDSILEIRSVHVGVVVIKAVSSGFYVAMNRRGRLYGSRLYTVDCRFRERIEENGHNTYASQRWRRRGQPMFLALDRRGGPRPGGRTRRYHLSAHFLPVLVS
UCH37 inh: human UCH37 deubiquitinating enzyme inhibition. inhibition, % (concentration not given with the values). Q9Y5K5. hit rate 0.33% among 330,000. purified proteasome/UCH37, Ub-AMC cleavage fluorescence;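 active = mean of two replicates above 20%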;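 also: 0% = compound-free wells with enzyme and 100% = wells lacking proteasome; stock transfer was 100 nL into about 20 µL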
Target sequence (Q9Y5K5 whole entry, looked up): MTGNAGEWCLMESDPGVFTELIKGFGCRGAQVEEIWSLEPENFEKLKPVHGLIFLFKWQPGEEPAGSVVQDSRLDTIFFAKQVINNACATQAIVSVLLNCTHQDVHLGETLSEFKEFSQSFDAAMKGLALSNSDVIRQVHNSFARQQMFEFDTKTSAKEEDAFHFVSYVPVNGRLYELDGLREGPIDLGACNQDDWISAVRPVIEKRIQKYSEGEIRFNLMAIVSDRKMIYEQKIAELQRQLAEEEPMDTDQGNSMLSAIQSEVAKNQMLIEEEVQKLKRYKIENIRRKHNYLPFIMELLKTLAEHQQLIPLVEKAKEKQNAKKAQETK
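Material: Human UCH37 enzyme supplied as purified proteasome complex | Schedule: 30 min compound-proteasome preincubation then 25 min substrate reaction, room temperature | Detection: AMC fluorescence from Ub-AMC cleavage, excitation 355 nm, emission 460 nm | Benchmarks: Wells without proteasome as full block, compound-free enzyme plus substrate as uninhibited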
ALR H2O2 inh: inhibitors of human sulfhydryl oxidase ALR; purified ALR, DTT oxidation, H2O2 HRP-luminol luminescence; inhibition, % (no concentration beside the values); hit rate 3.8% among 290,000; AID 485317;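 active = mean and each replicate at 75% or more; inconclusive = only one of the two met; inactive = neither met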;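 also: stock transfer was 7.5 nL into about 7.5 µL; 0% = neutral wells and 100% = wells with inactivated enzyme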
B2AR ag: agonists of human beta-2 adrenergic receptor inducing internalization; P07550; Am2.2-beta2AR cells, FAP receptor internalization, flow cytometry; reference of the scale not given here; response, % (concentration not given with the values); hit rate 0.43% among 340,000; AID 504454;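 active = response above a set limit, near 3 SD of response in nonfluorescent compounds, cut at about 42% in these data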;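 also: stock transfer was 100 nL into about 11 µL; a reference agonist was the positive control; negative values mostly stem from fluorescent compounds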
The depositor's hits bear a star; i = inactive; ? = inconclusive; nt = not tested or not shown. These rows are one share of the data; count on the stated rates, not on these rows.

SMILES	E coli growth	HNF4A DNA FP	LANA-H2B inh	FGF22 binding	UCH37 inh	ALR H2O2 inh	B2AR ag
Cc1ccc(P(=O)(CO)c2ccc(C)cc2)cc1	0.656	-2.5	4.1	nt	0.3	-0.7	5.7
COc1ccc(C(=O)NCC2CCCCC2)cc1S(=O)(=O)N1CCCC1	0.664	-1.9	-3.0	i	3.0	-2.8	-4.1
O=C(Cc1cccs1)Nc1nnc(SCC(=O)N2CCCCC2)s1	0.706	2.8	-4.5	nt	0.1	-3.7	-6.5
Cc1nn(-c2ccccc2)c(C)c1NC(=O)Cc1cccs1	0.741	-0.9	-2.7	i	8.7	-134.3	8.6
Cc1nc(S(=O)(=O)Nc2ccc3c(c2)OCCO3)cn1C	0.67	-0.4	1.1	i	5.6	-18.2	-5.4
Cc1cc(NC(=O)c2ccc(F)cc2)n(-c2ccccn2)n1	0.694	2.9	3.5	i	3.6	nt	4.7
CC1=C(C(=O)Nc2ccccc2)C(c2ccccc2)N2C(=O)CSC2=N1 (centres undefined)	0.738	2.6	1.0	nt	3.8	-10.4	-1.8
O=C(COC(=O)Cc1ccc(Br)cc1)NCc1ccc(F)cc1	0.674	1.1	-7.6	i	3.0	-20.6	0.0
Cc1cccc(NC(=O)CN2C(=O)N/C(=C/c3cc(C)n(-c4ccncc4)c3C)C2=O)c1	0.701	5.2	-2.9	i	-2.2	16.1	-2.2
CNC(=O)c1cccc(NC(=O)CCCNC(=O)c2ccc(Cl)cc2)c1	0.649	0.6	-3.6	i	1.7	-6.7	7.0
CCOc1ccc(NC(=O)CN(C)C(=O)c2cccnc2SC)cc1OCC	0.709	-1.3	0.4	i	3.6	-2.7	7.5
C=CCSc1nc(-c2ccc3c(c2)OCO3)cc(C(F)(F)F)c1C#N	0.674	-2.5	2.2	nt	i	-20.0	-5.8
O=C(Nc1ccc(NC(=O)c2ccco2)nc1)c1ccccn1	0.728	1.2	-0.7	nt	3.0	-30.3	-11.7
CCc1cc(=O)oc2cc3occ(C)c3cc12	0.663	-2.0	-1.7	nt	-28.9	-21.9	-4.7
Cc1ccc(NC(=O)CC(C)S(=O)(=O)c2ccc3c(c2)NC(=O)CO3)c(Cl)c1 (centres undefined)	0.693	1.4	3.1	i	-0.7	-0.4	3.1
CC(C)CCNC(=O)CCCC1=NS(=O)(=O)c2ccccc2N1	0.686	1.4	-1.2	nt	1.7	-1.2	4.0
COCCCN(C(=S)NC(=O)c1ccc(Br)cc1)c1c(N)n(Cc2ccccc2)c(=O)[nH]c1=O	0.698	1.3	-1.0	i	0.3	-9.2	-0.6
O=C(NCC(c1ccco1)N1CCCC1)c1cccc(S(=O)(=O)Nc2ccc(Br)cc2)c1 (centres undefined)	0.699	4.1	-1.7	i	-5.1	-2.3	3.1
Cc1cccc(N2CCN(C(=O)c3ccccc3OCc3c(C)noc3C)CC2)c1C	0.617	0.8	1.9	i	-0.6	-6.6	-9.0
c1ccc(-c2cnc(C3CCCCC3)o2)cc1	0.653	0.1	nt	i	1.0	nt	0.2
O=C(CCn1nnnc1CN1CCOCC1)N1CCC(c2ccccc2Cl)C1 (centres undefined)	0.677	-3.0	-4.3	i	2.7	-0.9	-4.9
CC(=O)c1sc2nc(-c3ccc(C)cc3)c3c(c2c1N)CCCC3	0.686	2.0	-1.2	nt	-185.1	3.6	4.0
C=CCNC(=O)C1(c2ccccc2)CC1(Cl)Cl (centres undefined)	0.635	0.9	1.6	i	-1.2	-2.3	5.6
COc1ccc(S(=O)(=O)Nc2nnc(CC(C)(C)C)s2)cc1	0.679	2.0	-0.4	i	0.5	-6.9	-1.4
CCOc1ccc(NC(=O)C(=O)NCCCn2ccnc2)cc1	0.692	-4.8	-5.9	nt	4.7	10.4	2.6
Cc1ccc(C(=O)N/C(=C\c2ccc(-c3ccc(Br)cc3)o2)C(=O)NC2CCS(=O)(=O)C2)cc1 (centres undefined)	0.675	-3.6	0.8	i	-96.1	-1.5	38.3
CC(Sc1nc2ccccc2s1)C(=O)NC1CCCc2ccccc21 (centres undefined)	0.68	-2.5	nt	nt	0.4	nt	-1.1
CC(=O)n1cc([C@@H]2C=C(C(=O)N3CCN(Cc4ccc5c(c4)OCO5)CC3)O[C@H](OCc3ccc(CO)cc3)C2)c2ccccc21	nt	1.2	1.3	i	2.6	-14.4	6.5
COc1ccc(CC(=O)NCC(=O)NCc2cc(=O)n(C)c(=O)n2C)cc1	0.695	0.9	0.1	i	2.0	-3.7	-0.4
Cc1cc(N2CCN(C)CC2)nc2ccc(NC(=O)c3ccc(Br)o3)cc12	0.695	0.3	-2.1	nt	5.7	-19.0	-14.8
Cc1ccc(NC(=O)Cn2cccc2)cc1C	0.674	-4.8	3.2	nt	3.3	5.4	13.4
Cn1c(=O)c2sccc2n2c(CCCC(=O)NC3CCN(Cc4ccccc4)CC3)nnc12	0.69	-3.6	0.6	i	1.2	-5.7	-7.0
COc1cccc(C2NC(=O)NC(C)=C2C(=O)Nc2ccc(C)cc2)c1 (centres undefined)	0.721	2.4	-1.8	i	0.7	-3.6	1.0
Cc1ccc(CN2CC(C(=O)NCC(=O)Nc3c(C)cccc3C)CC2=O)cc1 (centres undefined)	0.66	-1.4	4.2	nt	5.7	-2.7	3.3
O=C(NCc1ccccc1)c1onc(CS(=O)(=O)c2ccc(Cl)cc2)c1C(=O)NCc1ccccc1	0.745	6.0	0.6	i	2.7	-6.0	0.3
N#Cc1cc([N+](=O)[O-])ccc1NC(=O)COC(=O)C1CC2CCCC(C1)C2=O (centres undefined)	0.671	-3.2	-7.0	i	4.2	-25.4	-9.2
O=C(NCCc1nc(-c2ccc(F)cc2)no1)c1ccc(F)cc1	0.677	-6.1	2.9	i	2.7	nt	3.0
O=C(Nc1ccccc1O)c1ccc([N+](=O)[O-])cc1	0.678	-3.8	1.2	i	5.9	26.2	4.3
COc1ccc(C(C[N+](=O)[O-])c2c(C)cc3ccccn23)c(OC)c1 (centres undefined)	0.703	-0.9	-10.3	i	3.3	3.6	3.1
COCCCNC(=S)NCCCNc1nc2cc3c(cc2cc1C#N)OCO3	0.707	-5.5	3.7	i	-199.8	-9.7	5.9
COc1ccc(C2=NOC3(CC(=O)N(c4ccc(Cl)cc4)C3=O)C2)c(OC)c1 (centres undefined)	0.687	2.7	-0.2	i	0.5	2.0	1.4
Cc1cc(OCc2cc(C(=O)N(Cc3nccn3C)C(C)C)no2)cc(C)c1Cl	0.619	-0.3	-0.8	i	4.0	2.4	-1.0
CC(C)(C)c1ccc(C(=O)NCC(=O)NNC(=O)c2ccccc2O)cc1	0.69	3.4	-0.1	i	-7.6	3.3	2.8
CCOc1ccc(OCC(=O)OC(C)C(=O)Nc2ccc(Cl)cn2)cc1 (centres undefined)	0.623	0.8	2.9	i	1.8	-42.5	-2.6
CCOc1ccc(NC(=O)CN2CCN(C(=O)c3ccco3)CC2)cc1S(=O)(=O)N1CCCC1	0.697	3.7	1.4	i	-0.7	-4.1	-25.8
COC(=O)Oc1ccc(/C=C/C(=O)OC(C)C)cc1OC(=O)OC	0.707	-2.7	4.5	nt	-1.0	95.1*	6.9
Cc1cc(C)c2sc(NC(=O)CN3C(=O)CCC3=O)nc2c1	0.722	-6.9	7.3	i	2.9	-3.6	-5.3
CC(C)(C)OC(=O)NCc1ccc(NC(=O)c2nc[nH]c2C(=O)NCCCCCCNC(=O)c2[nH]cnc2C(=O)Nc2ccc(CNC(=O)OC(C)(C)C)cc2)cc1	0.666	45.7*	6.0	i	-0.4	-5.0	6.1
CCCOc1ccc(C(=O)CCC(=O)NNC(=O)c2cccs2)cc1	0.64	1.1	-2.8	i	4.3	nt	-9.2
Cc1cc(-c2ccccc2N)n[nH]1	0.67	1.6	1.5	nt	-3.4	?	-6.0
CCOC(=O)C1(Cc2cccc(OC)c2)CCCN(Cc2cc(OC)c(O)c(OC)c2)C1 (centres undefined)	0.637	0.3	-1.7	i	1.3	-20.4	27.6
O=C(NNc1ccc(C(F)(F)F)cc1[N+](=O)[O-])c1ccc(NS(=O)(=O)c2ccc(F)cc2)cc1	0.637	-0.6	i	nt	1.6	0.8	1.5
Nc1n[nH]c2cc(=O)n(-c3ccc(Cl)cc3)nc12	0.742	-13.5	2.7	nt	-0.2	72.4	5.3
CCC(C)[C@H](NC(=O)CCn1nnc2ccccc2c1=O)C(=O)O (some centres undefined)	0.709	0.2	0.3	nt	-3.9	-3.5	-0.8
CC1=C(C(=O)OCc2ccccc2)C(c2ccc(Cl)cc2)NC(=O)N1CCCCCC(=O)O (centres undefined)	0.728	-6.8	-2.6	i	0.7	34.8	2.5
Fc1ccc(C(c2nnnn2C2CCCCC2)N2CCCC2)cc1 (centres undefined)	0.692	0.2	5.0	i	2.6	-15.4	-4.1
O=C(NCCc1c[nH]c2ccccc12)c1cnc2n(c1=O)CCS2	0.727	1.3	0.3	i	3.1	-9.7	-6.7
CC(C(=O)NCc1ccccn1)N1C(=O)c2ccccc2C1=O (centres undefined)	0.701	-2.8	-2.2	nt	5.2	-21.2	-5.3
CNC(=S)N/N=C/c1ccco1	nt	0.5	2.2	i	nt	15.1	-6.5
CC(C)C1NC(=S)N(C2CCCCC2)C1=O (centres undefined)	0.722	-2.7	0.3	i	0.7	nt	-10.0
CCC(=O)c1ccccc1OCCCN1C(=O)NC(C)(C)C1=O	0.747	-3.3	-5.7	nt	-0.9	6.6	10.7

Arranged by molecular weight (lowest first): part of the list above.
SMILES	E coli growth	HNF4A DNA FP	LANA-H2B inh	FGF22 binding	UCH37 inh	ALR H2O2 inh	B2AR ag
Cc1cc(-c2ccccc2N)n[nH]1	0.67	1.6	1.5	nt	-3.4	?	-6.0
CC(C)C1NC(=S)N(C2CCCCC2)C1=O (centres undefined)	0.722	-2.7	0.3	i	0.7	nt	-10.0
Nc1n[nH]c2cc(=O)n(-c3ccc(Cl)cc3)nc12	0.742	-13.5	2.7	nt	-0.2	72.4	5.3
CC(C(=O)NCc1ccccn1)N1C(=O)c2ccccc2C1=O (centres undefined)	0.701	-2.8	-2.2	nt	5.2	-21.2	-5.3
Cc1cc(C)c2sc(NC(=O)CN3C(=O)CCC3=O)nc2c1	0.722	-6.9	7.3	i	2.9	-3.6	-5.3
CCC(=O)c1ccccc1OCCCN1C(=O)NC(C)(C)C1=O	0.747	-3.3	-5.7	nt	-0.9	6.6	10.7
CCC(C)[C@H](NC(=O)CCn1nnc2ccccc2c1=O)C(=O)O (some centres undefined)	0.709	0.2	0.3	nt	-3.9	-3.5	-0.8
COC(=O)Oc1ccc(/C=C/C(=O)OC(C)C)cc1OC(=O)OC	0.707	-2.7	4.5	nt	-1.0	95.1*	6.9
O=C(NCCc1c[nH]c2ccccc12)c1cnc2n(c1=O)CCS2	0.727	1.3	0.3	i	3.1	-9.7	-6.7
CCCOc1ccc(C(=O)CCC(=O)NNC(=O)c2cccs2)cc1	0.64	1.1	-2.8	i	4.3	nt	-9.2
CCOC(=O)C1(Cc2cccc(OC)c2)CCCN(Cc2cc(OC)c(O)c(OC)c2)C1 (centres undefined)	0.637	0.3	-1.7	i	1.3	-20.4	27.6
CC1=C(C(=O)OCc2ccccc2)C(c2ccc(Cl)cc2)NC(=O)N1CCCCCC(=O)O (centres undefined)	0.728	-6.8	-2.6	i	0.7	34.8	2.5
O=C(NNc1ccc(C(F)(F)F)cc1[N+](=O)[O-])c1ccc(NS(=O)(=O)c2ccc(F)cc2)cc1	0.637	-0.6	i	nt	1.6	0.8	1.5
CC(C)(C)OC(=O)NCc1ccc(NC(=O)c2nc[nH]c2C(=O)NCCCCCCNC(=O)c2[nH]cnc2C(=O)Nc2ccc(CNC(=O)OC(C)(C)C)cc2)cc1	0.666	45.7*	6.0	i	-0.4	-5.0	6.1
